Cruzain Triton: blocks cruzain activity in presence of Triton detergent. Potency, µM, without a hit: max response, negative = inhibition, actives largely listed as inhibitors. purified cruzain, Z-FR-AMC fluorescence, 0.01% Triton. 200,000 tested, 0.43% active. P25779;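 also: plate controls were neutral wells for no effect and buffer without enzyme for full effect; nearly all actives have a fitted effect of over 40% in size; top concentration of the series not given in the record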
Target sequence (P25779 123-467 limits assumed): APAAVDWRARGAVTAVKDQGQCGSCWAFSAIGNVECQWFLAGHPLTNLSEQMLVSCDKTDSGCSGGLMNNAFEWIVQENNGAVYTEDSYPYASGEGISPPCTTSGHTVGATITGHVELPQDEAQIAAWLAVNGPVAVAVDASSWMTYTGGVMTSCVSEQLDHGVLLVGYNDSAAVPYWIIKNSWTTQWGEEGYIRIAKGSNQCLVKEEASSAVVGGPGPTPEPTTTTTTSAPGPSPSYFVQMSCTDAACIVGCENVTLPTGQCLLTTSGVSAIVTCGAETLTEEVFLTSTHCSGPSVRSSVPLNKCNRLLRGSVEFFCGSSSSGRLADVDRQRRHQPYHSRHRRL
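Read-out: AMC fluorescence (360 nm excitation, 450 nm emission), four reads over 2 min, first-to-third difference used. Conditions: cruzain 1.5 nM, Z-FR-AMC 2 uM, pH 5.5 acetate, 5 mM DTT, 0.01% Triton X-100.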
SARS PLP yeast: inhibitors of SARS-CoV papain-like protease in yeast; Potency, µM (top dose mostly 32.9 µM), without a hit: at the top dose activity, positive = growth rescue; S. cerevisiae expressing SARS-CoV PLpro, growth rescue; control for the full effect not named in the record; 330,000 tested, 0.19% active; AID 485353; active means well fitted rising curve with a large enough effect; inconclusive means small, poorly fitted or top-dose-only effect; inactive means no such curve, though single readings can be large or run the other way; also: 0% is about no effect; nearly all actives have a fitted effect of over 55% in size; growth read by luminescence after 48 h
Lassa entry inh: inhibitors of Lassa virus binding or cell entry | Lassa virus pseudotype entry inhibition, cell reporter; control for the full effect not named in the record | Potency, µM (doses to about 37.9 µM), inactives show top-dose activity change, negative = inhibition, usual class: inhibitors | 300,000 tested, 1.2% active | AID 540256; active means well fitted inhibition curve with a large enough effect; inconclusive means small, poorly fitted or top-dose-only effect, or effect the other way; inactive means flat fitted curve, though single readings scatter; tested in HEK293 cells; also: % is scaled to controls: 0 for no effect and ±100 for the full control effect; nearly all actives have a fitted effect of over 50% in size; luciferase read-out
RE007 growth inh: less growth of the S. pombe RE007 Vpr strain; S. pombe RE007 Vpr strain, BacTiter-Glo ATP luminescence, 24 h; control for the full effect not named in the record; 360,000 tested, 0.21% active; Potency, µM (series often up to 92.2 µM), for the others: at the top dose activity change, negative = less growth; active = well fitted falling curve with a large enough effect; inconclusive = small, poorly fitted or top-dose-only effect; inactive = no such curve, though single readings can be large or run the other way;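 also: % is scaled to controls: 0 for no effect and ±100 for the full control effect; nearly all actives have a fitted effect of over 50% in size; the assay follows cell death caused by Vpr and the record does not say whether a fall means rescue or toxicity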
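Fission yeast strain RE007, carrying one chromosomally integrated HIV-1 vpr copy, was seeded at OD 0.01 in PMG+AL medium with 23 nL pinned compound. After 24 h at 30 °C and 99% humidity, viability was read by BacTiter-Glo luminescence.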
MARV entry inh: Marburg virus entry inhibition | Marburg virus pseudotyped entry inhibition, cell reporter; control for the full effect not named in the record; about a third of the inactives were read at about 46 µM | Potency, µM (titrated, usually from 37.8 µM), for the others: top-dose activity change, negative = inhibition, hits mostly inhibitors | 300,000 tested, 1.8% active | AID 540276; active = well fitted inhibition curve with a large enough effect; inconclusive = small, poorly fitted or top-dose-only effect, or effect the other way; inactive = flat fitted curve, though single readings scatter; tested in HEK293 cells; about a fifth of its hits are not listed in these tables; also: % is scaled to controls: 0 for no effect and ±100 for the full control effect; luciferase read-out
Cruzain inh noDet: inhibitors of Trypanosoma cruzi cruzain without detergent. P25779. purified cruzain, Z-FR-AMC fluorescence, no detergent. Potency, µM, without a hit: max response, negative = inhibition, most hits filed as inhibitors. 200,000 tested, 2.3% active;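 also: plate controls were enzyme without inhibitor for no effect and buffer without enzyme for full effect; nearly all actives have a fitted effect of over 40% in size; top concentration of the series not given in the record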
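Purified cruzain at 1.5 nM, pre-incubated 15 min with compound at room temperature in 100 mM sodium acetate pH 5.5, 5 mM DTT, 0.00005% Triton X-100. Reaction started with 2 uM Z-FR-AMC; AMC fluorescence increase over 60 s gives rate.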
StopGo reporter: lowers the luciferase signal of an FMDV 2A StopGo reporter | human cells with a luciferase reporter of 2A StopGo recoding; control for the full effect not named in the record | Potency, µM (highest dose often 57.9 µM), without a hit: top-dose signal change, negative = less light | 410,000 tested, 1.2% active; active = well fitted falling curve with a large enough effect; inconclusive = small, poorly fitted or top-dose-only effect; inactive = no such curve, though single readings can be large or run the other way; tested in HEK293T cells; also: % is scaled to controls: 0 for no effect and ±100 for the full control effect; nearly all actives have a fitted effect of over 45% in size; luciferase light after 4 h
NS1 inh: inhibitors of influenza NS1 protein function; S. cerevisiae slowed by influenza A NS1, growth recovery by OD600; Potency, µM (titrated, usually from 46.1 µM), inactives show at the highest dose activity, positive = more growth; 270,000 tested, 0.4% active; active means well fitted rising curve with a large enough effect; inconclusive means small, poorly fitted or top-dose-only effect; inactive means no such curve, though single readings can be large or run the other way; also: nearly all actives have a fitted effect of over 50% in size
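Compounds were scored for reversing the slow growth caused by influenza A NS1 in S. cerevisiae, measured by optical density at 600 nm. Assay medium contained 2% galactose at pH 6.0; NS1-free yeast of the same strain were the positive control.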
Starred values were filed as active, the others as inactive; ? = inconclusive; nt = not tested or not shown; & = joins results of further samples; [ ] = another dose, or the depositor's remark. Unless noted, calls follow the shape of the dose curve; as a rule, active = well fitted curve in the direction sought with a large enough effect; inconclusive = small, poorly fitted or top-dose-only effect, or another doubt; inactive = no such curve, though single readings can be large; an effect the other way counts as inactive or inconclusive. Potency is read from the fitted curve at half-maximal effect.

SMILES	Cruzain Triton	SARS PLP yeast	Lassa entry inh	RE007 growth inh	MARV entry inh	Cruzain inh noDet	StopGo reporter	NS1 inh
O=C(NCCNc1ccc([N+](=O)[O-])cc1)c1ccccc1Br	-5.3%	-4%	1%	1%	?	-22%	nt	3%
N#Cc1ccccc1OCC(=O)N1CCN(c2ccccc2)CC1	-1.9%	nt	nt	nt	30%[46.1 µM]	-12%	-23%	nt
CCOC(=O)Cc1csc(NC(=O)c2sc3nc4c(C)cc(C)cc4cc3c2N)n1	-12%	-5%	6%	-6%	-9%	11%	nt	?
COCCNC(=O)C(OC(=O)c1cc2oc(C)cc2n1C)C(C)C (stereo not drawn)	2.2%	2%	-4%	-7%	1%	7%	-23%	-7%
Cc1ccc(NS(=O)(=O)c2cn(C)c(=O)n(C)c2=O)c(C)c1	nt	8%	nt	4%	nt	nt	?	3%
Cn1cc(S(=O)(=O)NCCc2ccccc2)c(=O)n(C)c1=O	nt	-1%	12%	8%	9%	nt	14%	?
O=C(Cc1ncon1)Nc1ccc(F)c(F)c1F	nt	-1%	nt	15%	nt	nt	9%	9%
O=C(NCc1cccs1)c1nn2cccnc2c1Cl	1.5%	-2%	?	-2%	-3%	7%	32%[activator]	-28%
O=C(Nc1ccc2c(c1)OCCO2)C1CCN(S(=O)(=O)c2ccc3c(c2)OCCO3)CC1	-5.5%	-5%	-2%	-1%	-13%	7%	0%	-63%
O=C(Cn1c(=O)c2sccc2n(Cc2ccc([N+](=O)[O-])cc2)c1=O)NCCc1ccccc1	-3.2%	9%	?	19%	?	-2%	?	21%
CC(NC(=O)c1cc2cc(F)ccc2[nH]1)c1ccccc1 (stereo not drawn)	nt	-4%	nt	-19%	nt	nt	-20%	-47%
Cn1c(O)c(C(c2ccncc2)c2c(O)n(C)c(=S)n(C)c2=O)c(=O)n(C)c1=S	1.2%	4%	2%	5%	-3%	-5%	-27%	7%
COc1ccc(NC(=O)CN2CCCCC2)c([N+](=O)[O-])c1	2.3%	-10%	0%	-2%	5%	-5%	nt	-1%
O=C1CC(N2CCN(Cc3ccc(Cl)cc3)CC2)C(=O)N1CCc1ccccc1 (stereo not drawn)	nt	-1%	?	-3%	?	nt	?	-3%
Cc1ccc(Cn2c(CCNC(=O)C(C)C)nc3ccccc32)cc1	-11%	nt	-7%[46.1 µM]	nt	15%[46.1 µM]	10%	-20%	nt
Cc1cccc(C(C)C)c1NC(=O)c1c(-c2ccccc2)noc1C	nt	?	nt	-13%	nt	nt	40%	4%
Cc1nc(C)c(-c2csc(NCCc3ccccc3)n2)s1	-8.1%	-29%	?	-20%	?	-11%	?	-83%
Cc1nnc(SCC(=O)NC(=O)NC(C)C)s1	nt	-1%	0%	0%	-4%	nt	1%	nt
O=C(CN1CCCCC1)NN(Cc1ccccc1)c1ccccc1	nt	0%	1%	-5%	-4%[46.1 µM]	nt	-11%	-14%
CC(=O)Nc1ccc(NC(=O)COC(=O)c2cc([N+](=O)[O-])ccc2N2CCOCC2)cc1	nt	1%	-4%	2%	-18%	nt	-7%	4%
COc1ccc(C2CC(c3c(-c4ccccc4)c4cc(Cl)ccc4[nH]c3=O)=NN2S(C)(=O)=O)cc1OC (stereo not drawn)	-0.4%	2%	-20%	10%	?	?	?	9%
CN(C)c1ccc(NS(=O)(=O)c2ccc(Cl)cc2)cc1	-4.7%	5%	-11%	-11%	13%	-2%	-23%	-11%
O=C(Oc1ccc(N(Cc2cccs2)C2=NS(=O)(=O)c3ccccc32)cc1)c1ccco1	-9.3%	-5%	?	1%	6%&6%	-29%	-23%	-36%
Cc1cccc(-c2ccc(NC(=O)C3CCN(CC4CC4)CC3)cc2)c1	nt	-2%	-10%[46.1 µM]	0%	?	nt	-23%	-7%
CC1CC(=O)c2cnc(N3CCOCC3)nc2C1 (stereo not drawn)	-2.0%	4%	2%	-5%	?	-11%	33%[activator]	-8%
CC12CCC(C(=O)N3CCCc4ccccc43)(CC1=O)C2(C)C (stereo not drawn)	5.0%	-4%	-8%	12%	-1%	5%	-17%	-65%
Cc1c(N=Nc2c(O)[nH]c(=O)[nH]c2=O)c(=O)n(-c2ccccc2)n1C	nt	0%	-3%	5%	1%	nt	-4%	nt
COc1cc([N+](=O)[O-])ccc1NC(=S)Nn1cnnc1	nt	?	nt	9%	nt	nt	-13%	-10%
Cc1ccc(NC(=O)C(=O)NCCc2c[nH]c3ccccc23)c(C)c1	nt	3%	4%[46.1 µM]	-13%	-20%[46.1 µM]	nt	-18%	nt
O=C(Nc1ccccc1C(F)(F)F)N1CCCC(O)C1 (stereo not drawn)	5.5%	1%	14%	2%	-11%	-5%	-7%	4%
Cc1ccccc1Nc1nnc(SCC(=O)c2c(N)n(C)c(=O)n(C)c2=O)s1	nt	-1%	10%	-3%	24%	nt	-5%	nt
COC(=O)C(O)(c1ccc(NC(=O)Oc2ccccc2)cc1)C(F)(F)F (stereo not drawn)	-4.3%	8%	-5%	8%	22%	6%	36%[activator]	5%
Nn1c(SCC(=O)N2CCCC2=O)nnc1-c1cccs1	nt	-1%	27%	8%	-4%	nt	36%[activator]	nt
CCOCCCN(Cc1ccco1)S(=O)(=O)c1csc(C(N)=O)c1	nt	7%	nt	4%	nt	nt	-1%	-8%
O=C(CCNC(=O)c1ccc([N+](=O)[O-])cc1)NCCc1ccccc1	nt	-1%	1%[46.1 µM]	?	0%[46.1 µM]	nt	2%	9%
CCOC(=O)C1CCCN(C2=NC(=O)/C(=C/c3ccc(O)c(OC)c3)S2)C1 (stereo not drawn)	nt	0%	nt	-4%	nt	nt	17%	-3%
Clc1ccccc1-c1nnc2n1-c1ccccc1SC2	nt	-2%	4%	5%	-8%[46.1 µM]	nt	0%	2%
CC(=O)Nc1nonc1NC(=O)c1ccc(F)cc1	1.5%	-1%	5%	-8%	-11%	-5%	17%	0%
Clc1ccc(Cc2noc(-c3cccs3)n2)cc1	-4.8%	11%	1%	-12%	?	-18%	65%[activator]	5%
COc1ccccc1NC(=O)CN(c1ccc(C(C)C)cc1)S(=O)(=O)c1c(C)noc1C	-8.5%	nt	-23%[46.1 µM]	nt	-34%[46.1 µM]	0%	-29%	nt
CCCS(=O)c1nc(C)cc(C)c1S(C)(=O)=O (stereo not drawn)	nt	-3%	7%[46.1 µM]	10%	11%[46.1 µM]	nt	22%	nt
CCOC(=O)c1ccc(NC(=O)c2c(C)[nH]c(C(=O)OCC)c2C)cc1	-5.5%	1%	4%[14.3 µM]	-10%	3%	?	0%	-7%
Cn1c(NC(=O)c2cc(Cl)ccc2Cl)cc(=O)n(C)c1=O	3.3%	7%	nt	14%	4%	-15%	-15%	-1%
COP(=O)(OC)C(Nc1ccccc1)c1ccccc1 (stereo not drawn)	nt	6%	nt	-4%	nt	nt	-3%	23%
CCOC(=O)c1sc(NC(=O)/C=C/c2ccc(C(C)C)cc2)c(C(=O)OCC)c1C	-0.1%	nt	20%[46.1 µM]	nt	nt	-1%	-14%	nt
O=C(CCCCCN1C(=O)C2C3C=CC(C3)C2C1=O)Nc1nccs1 (stereo not drawn)	2.7%	?	nt	2%	nt	-3%	-9%	1%
CN(C)C(=O)C1C2NC(=S)N(c3ccccc3)C1(C)Oc1ccccc12 (stereo not drawn)	nt	-2%	?	-6%	-1%[46.1 µM]	nt	1%	nt
COCCN1Cc2cccc(C(=O)Nc3ccc(S(=O)(=O)N4CCCCC4)cc3)c2C1=O	nt	-1%	-16%	-11%	9%&9%[46.1 µM]	nt	-10%	-15%&-4%
COc1ccc(N2CCN(C(=O)CCCC3=NS(=O)(=O)c4ccccc4N3)CC2)cc1	0.2%	5%	1%	-14%	?	-7%	2%	-1%
CN(C)c1ccc(/C=C/c2nnnn2-c2ccccc2)cc1	-4.8%	19%	?	-7%	?	0%	15%	5%
O=C(NCCCO)c1cc2ccccc2[nH]1	nt	4%	21%[46.1 µM]	-1%	10%[46.1 µM]	nt	19%	6%
CCN1CCCC1Cn1cnc2c([nH]c3ccc(Cl)cc32)c1=O (stereo not drawn)	-2.1%	7%	12%	10%	?	-5%	-14%	13%
O=C(COc1ccc(Br)cc1)Nc1ccccc1C(=O)N1CCOCC1	nt	1%	3%	3%	9%	nt	-29%	-12%
CC(=O)N(c1ccc2oc(=O)sc2c1)S(=O)(=O)c1cccc2cccnc12	nt	0%	nt	-8%	-8%[46.1 µM]	nt	11%	9%
CCc1cc2c(SCC(=O)N3CC(=O)Nc4ccccc43)ncnc2s1	-7.9%	-9%	-5%	-3%	15%	-15%	-24%	-8%
O=C(NCc1ccncc1)C(=O)N/N=C/c1ccccn1	nt	-1%	?	12%	4%[46.1 µM]	nt	-1%	6%
C#CCN1C(=O)S/C(=C\c2ccc(-c3ccc(Cl)c(C(=O)O)c3)o2)C1=O	nt	-1%	nt	-14%	nt	nt	55%[activator]	24%
OC(CN1C2=NCCCN2c2ccccc21)c1ccc(Cl)cc1 (stereo not drawn)	-0.7%	5%	nt	-6%	nt	-7%	-22%	-10%
Oc1c(C(c2ccc(Cl)cc2)N2CCC3(CC2)OCCO3)sc2nc(-c3ccco3)nn12 (stereo not drawn)	-7.5%	nt	7%[46.1 µM]	nt	nt	?	-11%	nt
O=C(O)C1CCCN(S(=O)(=O)Cc2ccccc2)C1 (stereo not drawn)	nt	1%	nt	-11%	nt	nt	-13%	3%
CCC(Sc1nc(C)cc(C)n1)C(=O)O (stereo not drawn)	0.4%	0%	24%	4%	10%	7%	?	5%
Cc1ccc(NC(=O)N2CCN(S(=O)(=O)c3ccccc3)CC2)cc1	nt	0%	-2%	-17%	?	nt	-16%	1%
Oc1ccc(/C=C/c2nc(-c3ccccc3O)n(-c3ccccc3)n2)c(O)c1	-19%	nt	-24%[46.1 µM]	nt	?	25%	-1%	nt

Source: PubChem BioAssay (National Center for Advancing Translational Sciences (NCATS))
